Assay outcomes (PubChem)
GIRK2 activ: opens human GIRK2 potassium channels; P48051; HEK293-GIRK2 thallium flux, Thallos fluorescence; calls only for hits at 25 µM; hit rate 0.05% among 63,000; AID 1259325;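 active means among the strongest 0.2% of first-round signals and kept after retests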;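 further: first round at about 10 µM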
Target sequence (P48051 whole entry, looked up): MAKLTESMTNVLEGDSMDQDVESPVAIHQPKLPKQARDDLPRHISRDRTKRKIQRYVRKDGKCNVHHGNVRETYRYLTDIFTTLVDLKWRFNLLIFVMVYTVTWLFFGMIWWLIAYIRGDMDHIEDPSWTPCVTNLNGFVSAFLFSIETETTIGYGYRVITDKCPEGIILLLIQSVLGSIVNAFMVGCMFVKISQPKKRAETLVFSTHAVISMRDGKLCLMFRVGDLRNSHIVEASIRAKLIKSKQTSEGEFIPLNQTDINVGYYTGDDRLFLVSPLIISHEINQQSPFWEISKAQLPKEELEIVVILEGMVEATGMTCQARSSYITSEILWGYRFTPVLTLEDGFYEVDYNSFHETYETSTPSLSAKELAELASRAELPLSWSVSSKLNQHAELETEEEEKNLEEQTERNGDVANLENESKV
Calls only; i = inactive. Not all compounds are listed; count on the stated rates, not on these rows.

GIRK2 activ | SMILES
i | CCOC(=O)c1c(-c2ccc(OC)cc2)oc2cc(Br)c(OCC(N)=O)cc12
i | CCC(C(=O)Nc1cc(-c2cccs2)nn1-c1nc(C)c(C)c(=O)[nH]1)c1ccccc1 (configuration not stated)
i | O=C(/C=C/c1ccccc1)NCCCn1ccnc1-c1ccccc1
i | Cc1ccc(-c2noc(C3CCN(CC(=O)Nc4cc(Cl)ccc4C)CC3)n2)cc1
i | CS(=O)(=O)c1ccc(Nc2nc(C(=O)NCCc3ccccc3)cs2)cc1
i | CN(C)S(=O)(=O)c1ccc(C(=O)N(C(=O)N2CCCCC2)c2ccc(Cl)cc2)cc1
i | O=C(c1ccc([N+](=O)[O-])o1)N1CCN(Cc2csc(-c3ccccc3)n2)CC1
i | COc1ccccc1NC(=O)c1ccc(N2C(=O)c3ccccc3C2=O)cc1
i | NC(=O)c1nnn(-c2ccc(NC(=O)Cn3c(=O)oc4ccccc43)cc2)n1
i | CCC(C(=O)NCCN1CCN(c2ccc(F)cc2)CC1)c1ccccc1 (configuration not stated)
i | CC(=O)Nc1ccc(C2=NN(C(C)=O)C(c3ccc4nccnc4c3)C2)cc1 (configuration not stated)
i | CC(=O)Nc1ccc(C(=O)NCCNS(=O)(=O)c2ccc(OC(F)(F)F)cc2)cc1
i | CSc1ccc(CNC(=O)CCn2c(=O)[nH]c3ccsc3c2=O)cc1
i | Cc1occc1-c1nnc2sc(/C=C/c3cccc(Cl)c3)nn12
i | COCCCn1c(-c2ccc(OC)cc2)nc2oc3ccccc3c(=O)c2c1=O
i | CCOc1ccccc1Oc1coc2cc(OCC(=O)O)ccc2c1=O
i | COc1ccc(C)cc1NC(=O)CN1CCCN(Cc2ccc(Cl)cc2)S1(=O)=O
i | N=C1N=C(N)/C(=C/c2ccc3ncccc3c2)S1
i | COc1ccc(NC(=O)c2cc([N+](=O)[O-])ccc2Cl)cc1N1CCCC1=O
i | CCOC(=O)c1[nH]c(C)c(C(O)=C2C(=O)C(=O)N(CCN(C)C)C2c2ccco2)c1C (configuration not stated)
i | COC(=O)c1cc(OCc2ccc(Cl)cc2)c2cc(OC)ccc2n1
i | CCn1cc(S(=O)(=O)c2ccc(OC)cc2)c(=O)c2cc(F)c(N3CCCCCC3)cc21
i | COc1ccc(S(=O)(=O)Nc2ccc3c(c2)N(S(C)(=O)=O)CCC3)cc1F
i | O=C(NCC1CCN(C(=O)c2ccccc2F)CC1)c1cc(C2CC2)on1
i | O=C(CCCn1c(=S)[nH]c2cc3c(cc2c1=O)OCO3)NCc1cccc(Cl)c1
i | COc1ccc(CCNC(=O)NCCC(O)c2cc(C)oc2C)cc1 (configuration not stated)
i | Cc1nc(C)n(CC(C)NC(=O)c2cccs2)n1 (configuration not stated)
i | COc1cc(C(=O)Nc2ccccc2-c2nc3ccccc3[nH]c2=O)cc(OC)c1OC
i | CC(=O)Nc1ccccc1-c1ccc(=O)[nH]n1
i | O=C(CSc1nc(-c2ccccc2)cs1)NCc1ccc2c(c1)OCO2

A draw from above in order of length of the SMILES, smallest number first:
GIRK2 activ | SMILES
i | Cc1nc(C)n(CC(C)NC(=O)c2cccs2)n1 (configuration not stated)
i | COc1ccccc1NC(=O)c1ccc(N2C(=O)c3ccccc3C2=O)cc1
i | CS(=O)(=O)c1ccc(Nc2nc(C(=O)NCCc3ccccc3)cs2)cc1
i | Cc1ccc(-c2noc(C3CCN(CC(=O)Nc4cc(Cl)ccc4C)CC3)n2)cc1

(further entries)
GIRK2 activ | SMILES
i | O=C(CSc1nnc(CCc2nc3ccccc3s2)o1)Nc1ccc2c(c1)OCO2
i | Cc1cc(N2C(=O)CCS2(=O)=O)cc(C)c1S(=O)(=O)Nc1ccc(F)c(Cl)c1
i | O=C(c1ccco1)N1CCN(C(=O)C2CC2c2ccc(F)cc2)CC1 (configuration not stated)
i | COc1cc(NC(=O)CCc2nc3sc4c(c3c(=O)[nH]2)CCCCC4)cc(OC)c1OC
i | COc1ccc(Cl)cc1NC(=O)N1CCN(CC(=O)c2cccs2)CC1
i | O=C(COc1ccc(Cl)cc1Cl)N1CCC(COCc2ccccc2)CC1
i | N#Cc1ccccc1NC(=O)CCS(=O)(=O)Cc1ccccc1
i | COc1ccc(CC(C)(O)CNC(=O)CCSc2ccccc2)cc1 (configuration not stated)
i | Cn1nnn(-c2ccc(NC(=O)Cc3ccc(F)cc3)cc2)c1=O
i | Cc1ccc(-n2nnc(C(=O)NCCCN3CCCC3=O)n2)cc1
i | NCC(c1ccco1)N1CCOCC1 (configuration not stated)
i | CC1=C(C(N)=O)C(c2ccc(O)cc2)N2C(=O)CSC2=N1 (configuration not stated)
i | Cc1ccc(-n2cc(C(=O)N3CCC(NC(=O)Cc4ccc(F)cc4)CC3)nn2)cc1
i | Cn1c(C2CCN(S(C)(=O)=O)CC2)nn(Cc2cccc(C(F)(F)F)c2)c1=O
i | Cc1nc(-c2cccs2)sc1CNC(=O)c1ccsc1
i | COc1cc(/C=C/c2ccncc2)ccc1OC(=O)c1cc(OC)c(OC)c(OC)c1
i | Cc1nc(NC(=O)C2CCCN(Cc3nc(-c4ccncc4)no3)C2)sc1C (configuration not stated)
i | COC(=O)c1ccc(C2CCN(C(=O)COc3ccc(C)cc3)CC2)cc1
i | CC(C)Oc1ccc(NC(=O)CCc2ccccc2)cc1
i | CCN(CC)S(=O)(=O)c1ccc(-c2nc(C#N)c(N3CCN(C)CC3)o2)cc1
i | COC(=O)CN1CCN(Cc2nc3ccccc3[nH]2)CC1
i | COc1ccc(Cl)cc1NC(=O)NCCOc1cc(N2CCOCC2)ncn1
i | O=C(c1cc(-n2cccn2)ccn1)N1CCC(Cc2ccccc2)CC1
i | O=C(Nc1sccc1-c1nc2ccccc2s1)c1nc2ccccc2s1
i | COc1cccc(CNC(=O)Cn2nc3c4cccc(C)c4ncn3c2=O)c1OC
i | CCn1cnc2c(-c3ccccc3)cn(CC(=O)Nc3ccc(C(C)=O)cc3)c2c1=O
i | Cc1cccc(C)c1OCC(=O)Nc1ccc(S(=O)(=O)N2CCN(C)CC2)cc1
i | COc1cccc(C2c3c(oc4ccccc4c3=O)C(=O)N2CCN(C)C)c1 (configuration not stated)
i | COc1ccc(C(=O)Nc2ccc(-n3c(C)nc4ccccc4c3=O)cc2C)cc1
i | Cc1cn2c3c(=O)n(Cc4cccc5ccccc45)c(=O)n(C)c3nc2n1CCCN(C)C
i | CCCCOCC(O)C[N+]1(Cc2ccccc2)CCOCC1 (configuration not stated)
i | O=C(CSc1nc2ccccc2c(=O)n1CCc1ccccc1)Nc1ncn[nH]1
i | COc1ccc(N2CC(c3noc(-c4ccccc4C)n3)CC2=O)cc1 (configuration not stated)
i | CCCn1c(=O)c2sccc2n2c(CCCC(=O)NCCc3c[nH]c4ccccc34)nnc12
i | N#Cc1cccc(C(=O)Nc2ccc(-n3nnc(C(N)=O)n3)cc2)c1
i | Cc1noc(-c2ccc(N3CCC(NC(=O)c4ccc(F)c(Cl)c4)C3)nc2)n1 (configuration not stated)
i | COc1cccc(S(=O)(=O)NC2(C(=O)O)CCCCC2)c1
i | COc1ccc(-c2noc(CSc3nc4ccccc4c(=O)n3Cc3cccs3)n2)c(OC)c1
i | Cn1cc(/C=C/C(=O)c2cccc(F)c2)cc1/C=C/C(=O)NO
i | Cn1c(-c2nc(C(=O)NCCCN3CCCC3=O)cs2)cc2ccccc21
i | O=C(Nc1nc(-c2ccc3c(c2)OCCO3)cs1)C1CCN(S(=O)(=O)c2cccs2)CC1
i | O=C(NCc1ccccc1)N1CCC(Oc2ncccc2Cl)CC1
i | CCOC(=O)C1=C(c2ccccc2)N(C)C(=O)NC1c1ccc(O)c(OC)c1 (configuration not stated)
i | COc1ccccc1CCNC(=O)C(=O)Nc1ccc(Cl)cn1
i | CC(=O)N1CCN(C(=O)C(NC(=O)c2ccc(Cl)cc2)S(=O)(=O)c2ccc(F)cc2)CC1 (configuration not stated)
i | CC(=O)Cn1c(=O)c2c(nc3n2CC(C)CN3c2cccc(C)c2)n(C)c1=O (configuration not stated)
i | Cc1cc(C)cc(-n2c(C)c(C)n3c4c(=O)n(C)c(=O)n(C)c4nc23)c1
i | COc1cccc(N(C)S(=O)(=O)c2ccsc2-c2nc(-c3ccc(SC)cc3)no2)c1
i | COc1cccc2sc(N(C)CC(=O)Nc3ccc(-n4cnnn4)cc3)nc12
i | COc1nn(C)cc1C(=O)Nc1nnc(-c2ccccc2)o1
i | O=C(NCC1(O)CCCC1)c1c(F)cccc1F
i | COc1cccc(C(=O)Nc2cc3c4c(c2)CCN4C(=O)CC3)c1OC
i | COCCn1cnc2c(-c3ccccc3)cn(CC(=O)Nc3cccc(SC)c3)c2c1=O
i | COc1cc(NC(=O)C2CCN(S(C)(=O)=O)CC2)ncn1
i | O=C(NCCc1ccccc1)C(=O)NCCN1CCN(c2ccccc2F)CC1
i | C=CCOCC(O)Cn1c(NCC(C)O)nc2c1c(=O)[nH]c(=O)n2C (configuration not stated)
i | O=C(Nc1ccccc1-c1ccc(=O)[nH]n1)c1cc(=O)n(-c2ccccc2)c(=O)[nH]1
i | CCOc1cccc(C(=O)Nc2nonc2-c2ccc(OC)cc2)c1
i | O=C(Nc1nc2c(s1)CN(S(=O)(=O)C1CC1)CC2)c1ccccc1C(F)(F)F
i | CCOC(=O)c1ccc(Oc2coc3cc(O)ccc3c2=O)cc1

Remaining list, next part
GIRK2 activ | SMILES
i | COc1cccc(N2CC(C(=O)N3CCc4nc(NC(=O)c5cccs5)sc4C3)CC2=O)c1 (configuration not stated)
i | C/C=C/Cn1c(=O)c2c(nc3n(CCCC)c(C)cn23)n(C)c1=O
i | O=C(/C=C/c1ccco1)N1CCN(Cc2nc3ccccc3n2Cc2ccccc2)CC1
i | Cc1ccc(C)c(OC(C)C(=O)Nc2ccc(-c3csc4nc(C)cc(=O)n34)cc2)c1 (configuration not stated)
i | O=C(/C=C/c1ccco1)N1CCN(c2ccc(-c3noc(C(F)(F)F)n3)cn2)CC1
i | Cc1nc(SCc2nc(-c3ccc(F)c(Br)c3)no2)[nH]c(=O)c1C
i | CNC(=O)CSc1ncc(-c2ccccc2)n1-c1ccccc1C
i | CCN(CC)CCN1C(=O)c2oc3ccccc3c(=O)c2C1c1ccc(OC(C)C)cc1 (configuration not stated)
i | Cn1nc(CNS(=O)(=O)C2CC2)cc1-c1ccco1
i | CCOc1ccc(N2CCN(CC(=O)N(C)C)C2=O)cc1
i | CC(=O)NC1C(=O)N(CCCOc2cccc(C)c2)c2ccc(Cl)cc21 (configuration not stated)
i | CC(=O)Oc1ccc2c(=O)c(Oc3ccc(Br)cc3)coc2c1
i | CNC(=O)CSc1nc(-c2ccc(OC)c(OC)c2)cc(C(F)(F)F)c1C#N
i | COc1ccc(N2CCCn3c2nc2c3c(=O)[nH]c(=O)n2C)cc1Cl
i | COc1cc(NC(=O)Nc2nc3c(C)ccc(Cl)c3s2)cc(OC)c1OC
i | CCOc1ccc(-n2ccnc(NC(=O)Nc3cccc(OC)c3)c2=O)cc1
i | COc1ccc(S(=O)(=O)N(C)c2ccsc2C(=O)NCc2cccc(Cl)c2)cc1
i | NC(=O)CSc1nnc(N2CCN(C(=O)C3CC3)CC2)s1
i | CC(C)c1ccc(NC(=O)Cn2cnc3c(oc4ccccc43)c2=O)cc1
i | COc1ccc(CCC(=O)Nc2ccc(Cn3cnc(C(=O)Nc4ccc(OC)cc4)c3)cc2)cc1
i | CCOc1ccccc1CNC(=O)C1CCN(c2ncccc2-c2nc(-c3cccc(C)c3)no2)CC1
i | Cc1ccccc1NC(=O)N(Cc1ccoc1)Cc1cccs1
i | O=C1/C(=C/c2cccnc2)Oc2c1ccc1c2CN(c2ccccc2F)CO1
i | C=C1C(=O)O[C@H]2[C@H]1C[C@@H](O)[C@@]1(C)[C@@H](OC(=O)/C(C)=C/C)C[C@@H]3O[C@]3(C)[C@H]21
i | CSc1ccc(NC(=O)Cc2ccc(Cl)cc2)nn1
i | COc1ccc(Cn2cccc(S(=O)(=O)N3CCC(C)CC3)c2=O)cc1F
i | CN(C)S(=O)(=O)N1CCN(CC(=O)Nc2ccc(F)cc2)CC1
i | COC(=O)CNC(=O)C1CCCN(c2nc3c(-c4ccc(C)cc4)csc3c(=O)[nH]2)C1 (configuration not stated)
i | Cc1ccc(NC(=O)c2cc(Cl)ccc2[N+](=O)[O-])cc1N1CCCC1=O
i | COc1cccc(NC(=O)NCc2cc(C3CC3)n(C)n2)c1OC

Overlap with the part before: five entries, followed by the next part.
GIRK2 activ | SMILES
i | COc1ccc(Cn2cccc(S(=O)(=O)N3CCC(C)CC3)c2=O)cc1F
i | CN(C)S(=O)(=O)N1CCN(CC(=O)Nc2ccc(F)cc2)CC1
i | COC(=O)CNC(=O)C1CCCN(c2nc3c(-c4ccc(C)cc4)csc3c(=O)[nH]2)C1 (configuration not stated)
i | Cc1ccc(NC(=O)c2cc(Cl)ccc2[N+](=O)[O-])cc1N1CCCC1=O
i | COc1cccc(NC(=O)NCc2cc(C3CC3)n(C)n2)c1OC
i | CCOc1ccccc1NC(=O)CCCn1cccc1
i | CC(=O)Nc1nsc(N2CCC(C(=O)N3CCN(c4ccc(F)cc4)CC3)CC2)n1
i | Cc1onc(-c2ccccc2Cl)c1C(=O)O
i | O=C(NCc1nc2ccccc2[nH]1)c1ccc(Cl)cc1Cl
i | COC(=O)c1ccccc1NC(=O)CSc1ncnc2c1oc1ccccc12
i | CC(C)C(=O)Nc1c(-c2ccccn2)nsc1C(=O)NCc1ccccc1
i | CC1CCN(C(=O)CSc2ncc(S(=O)(=O)c3cccs3)c(N)n2)CC1
i | CCCOC(=O)c1ccc(Oc2c(C(F)(F)F)oc3cc(OC(=O)N(C)C)ccc3c2=O)cc1
i | CCCCNc1nc2ccccc2nc1NS(=O)(=O)c1ccc(OC)cc1
i | COc1ccc(C(=O)N2c3ccccc3NC(=O)CC2C)cc1OC (configuration not stated)
i | COc1ccc(S(=O)(=O)N2CCN(c3ccc(C)c(C)c3)CC2)cc1

Fetched by structure from the entries so far:
GIRK2 activ | SMILES
i | CCOC(=O)c1ccc(Oc2coc3cc(O)ccc3c2=O)cc1
i | CNC(=O)CSc1ncc(-c2ccccc2)n1-c1ccccc1C
